# Screens (PubChem)
# Rango complex inh: qHTS Assay for Inhibitors of Rango (Ran-regulated importin-beta cargo) - Importin beta complex formation | Rango CFP/YFP FRET sensor + importin beta, 45 min | Importin subunit beta-1 (Homo sapiens), Q14974 | 340,000 tested, 0.031% active | AID 540263, 2011 | Potency, µM (series often up to 92.2 µM), inactives show at the top dose inhibition of complex formation; active = rising FRET ratio curve, often small or poorly fitted; inconclusive = mostly compound fluorescence or quenching in the first reads; inactive = flat curves in all reads;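 note: potency is the fitted concentration of half-maximal effect; 0% = DMSO wells and 100% = buffer wells lacking importin beta; nearly all actives have a fitted effect of over 15% in size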
#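 FRET biosensor (snurportin 1 IBB flanked by EYFP and cerulean), 50 nM, with compound 5 min, then 0.125 microM importin beta in PBS, 1 mM DTT, 0.02% Tween-20, 0.1% BSA. CFP/YFP ratio read after 45 min at room temperature; pre-read flags interference.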
# Rango release inh: qHTS Assay for Inhibitors of RanGTP induced Rango (Ran-regulated importin-beta cargo) - Importin beta complex dissociation | Potency, µM (top dose mostly 46.1 µM), for inactives: at the top dose activity change, negative = inhibition | 340,000 tested, 0.071% active | Biochemical FRET Rango-importin beta, RanGTP-induced dissociation | Snurportin-1 (Homo sapiens) + GTP-binding nuclear protein Ran (Homo sapiens) + Importin …; active means falling FRET ratio curve, often poorly fitted, with flat reads before Ran was added; inconclusive means other falling curves, or compound fluorescence or quenching; inactive means flat or rising ratio curve;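 note: potency is the fitted concentration of half-maximal effect; % of control where 0% means no effect; nearly all actives have a fitted effect of over 45% in size; -100% = wells without RanGTP and RCC1; the record marks most hits as doubtful in a second field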
#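 Rango/importin beta premix (0.1/0.25 uM final), PBS + 1 mM DTT + 0.02% Tween-20 + 0.1% BSA; cpd 5 min RT; FRET pre-read; + RanGTP-RCC1 (0.6 uM Ran, 2 mM GTP, 0.2 uM RCC1); 45 min RT; FRET post-read, ex 430, em 486/530 nm.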
# miR-21 FLuc: qHTS Assay for Modulators of miRNAs and/orActivators of miR-21. 340,000 tested, under 10 active. AID 2288, 2010. Potency, µM (highest dose often 38.3 µM), for inactives: at the highest dose reporter change, positive = more light. HeLa miR-21 FLuc reporter, luciferase, 48 h; active = well fitted rising curve with a large enough effect; inconclusive = small, poorly fitted or top-dose-only effect; inactive = no such curve, though single readings can be large or run the other way;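 note: % of control where 0% means no effect; miR-21 action dims this reporter so a rising signal means less miR-21 action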
#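 Using DMEM plus 10% FBS, HeLa miR-21-FLuc cells are incubated with test compounds (final up to about 40uM) for 48 hours; firefly luciferase signal is then imaged following reagent-mediated lysis.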
# GLA inh pH 4.5: qHTS Assay for Inhibitors of Human alpha-Galactosidase at pH 4.5; Alpha-galactosidase A (Homo sapiens), P06280; purified enzyme, 4-MU-alpha-Gal fluorescence, pH 4.5; activity change, negative = inhibition, % at 105 µM; 230,000 tested, under 10 active; inconclusive = small, poorly fitted or top-dose-only inhibition, or a rising curve; inactive = flat fitted curve, though single readings scatter; no compound was filed as active;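 note: 0% = full activity with enzyme and -100% = basal without enzyme; dose as in the result columns while the protocol names 77 µM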
# Target sequence (P06280 whole entry, looked up): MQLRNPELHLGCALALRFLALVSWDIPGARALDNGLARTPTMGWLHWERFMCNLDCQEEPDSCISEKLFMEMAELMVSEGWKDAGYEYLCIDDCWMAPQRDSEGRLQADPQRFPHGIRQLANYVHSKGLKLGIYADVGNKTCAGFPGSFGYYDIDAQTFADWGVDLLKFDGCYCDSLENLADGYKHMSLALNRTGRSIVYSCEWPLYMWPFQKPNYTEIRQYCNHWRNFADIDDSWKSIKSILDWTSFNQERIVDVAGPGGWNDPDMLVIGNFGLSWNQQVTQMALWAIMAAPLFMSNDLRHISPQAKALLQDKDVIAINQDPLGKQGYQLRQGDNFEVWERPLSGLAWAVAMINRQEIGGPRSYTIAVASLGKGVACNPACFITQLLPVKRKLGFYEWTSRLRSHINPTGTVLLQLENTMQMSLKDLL
# Starred values were filed as active, the others as inactive; ? = inconclusive; · = not tested or not shown; & = joins results of further samples. A portion of the library (hit frequency here may not be typical).
[1] O=C1CCCN1CCC1CCN(C2CC(=O)N(c3ccc(F)cc3)C2=O)CC1 (stereo not given)
[2] N#Cc1c(N2CCSCC2)nsc1-c1ccccc1Cl
[3] CCc1nnc(NC(=O)c2ccc(COc3ccccc3Cl)o2)s1
[4] CCOC(=O)c1cc(NC(=O)c2ccco2)ccc1N1CCOCC1
[5] Cc1nnc(SCC(=O)N(CCC#N)c2ccc3c(c2)OCCO3)s1
[6] O=C1C2C3C=CC(C4CC34)C2C(=O)N1c1cc(Cl)ccn1 (stereo not given)
[7] COCCN(C(=O)C(=O)NC1CCCC1)C(C(=O)NC1CCCC1)c1ccccc1F (stereo not given)
[8] COc1ccc2cc(C(=O)N(C)Cc3ccccc3)[nH]c2c1

assay / entry	1	2	3	4	5	6	7	8
Rango complex inh	9.8%	-0.1%	-1.8%	-1.1%	-2.1%	-1.0%	-0.9%	-3.5%
Rango release inh	-20%	-15%	11%	21%	-12%	-4%	7%	-10%
miR-21 FLuc	-3%	-20%	-1%	-2%	·	-2%	0%	-15%
GLA inh pH 4.5	5	·	·	-3	·	-4	13	·

[9] Cc1nn(CCC#N)c(N)c1C1(O)C(=O)Nc2c(Cl)cc(Cl)cc21 (stereo not given)
[10] O=C(NN=C1CCN(Cc2ccccc2)CC1)c1ccccc1
[11] CS(=O)(=O)c1ccccc1-c1nnc(-c2ccc(Cl)cc2)o1
[12] CCN(CC)CCN(C)Cc1ccc(Br)cc1
[13] COC(=O)c1cnn(-c2ccccc2)c1/C=N/NC(=S)Nc1ccc(Cl)cc1
[14] COc1ccc(/C=N/OCC(=O)N(Cc2ccccc2)c2ccccc2C(=O)O)cc1
[15] Cc1ccc(S(=O)(=O)CCC(=O)OCC(=O)N2CCc3ccccc32)cc1
[16] Cc1nc(N2CCOCC2)sc1C=O

assay / entry	9	10	11	12	13	14	15	16
Rango complex inh	0.0%	?	0.0%	-1.0%	0.9%	0.3%	7.0%	2.2%
Rango release inh	9%	-10%	-3%	0%	6%	-2%	-7%	-20%
miR-21 FLuc	15%	-22%	-47%	12%	-1%	-8%	0%	3%
GLA inh pH 4.5	-7	12	-20	0	3	-13	·	2

[17] O=C(Nc1ccc2c(c1)C(=O)OC2)c1ccccc1Cl
[18] Cc1csc(CNC(=O)c2ccc(OC3CCN(CCc4ccccc4)CC3)cc2)n1
[19] COc1ccc(CNC(=O)Cn2ccc3cc(S(=O)(=O)N4CCCC4)ccc32)cc1OC
[20] COc1ccc(CC(=O)Nc2c3c(nn2C(C)(C)C)CS(=O)(=O)C3)cc1
[21] Cn1c(CC(=O)Nc2ccc(Cl)cc2)nnc1SCC(=O)N1CCOCC1
[22] Cc1ccc(S(=O)(=O)C(C)C(=O)NCCS(=O)(=O)c2ccc(Cl)cc2)cc1 (stereo not given)
[23] COCCCNC(=O)Cn1cc(C(C)=O)c2ccccc21
[24] N#CC1=C(N)C2=CCCC[C@H]2[C@H](c2ccccc2)C1(C#N)C#N

assay / entry	17	18	19	20	21	22	23	24
Rango complex inh	1.8%	-1.0%	-0.6%	1.7%	-2.1%	0.3%	-0.4%	?
Rango release inh	-12%	-10%	-5%	-2%	26%	-20%	-9%	?
miR-21 FLuc	-28%	0%	-7%	-4%	1%	0%	0%	-3%
GLA inh pH 4.5	·	·	·	·	·	-17	0	2

# Some entries already given, limited to GLA inh pH 4.5, miR-21 FLuc and Rango release inh:
item | SMILES | GLA inh pH 4.5 | miR-21 FLuc | Rango release inh
19 | COc1ccc(CNC(=O)Cn2ccc3cc(S(=O)(=O)N4CCCC4)ccc32)cc1OC | · | -7% | -5%
20 | COc1ccc(CC(=O)Nc2c3c(nn2C(C)(C)C)CS(=O)(=O)C3)cc1 | · | -4% | -2%

# Continued.
[25] CCc1ccc(CCC(=O)Nc2nccs2)o1
[26] CCC1(CC)NC(=O)N(CC(=O)OCC(=O)Nc2cc(OC)ccc2OC)C1=O
[27] COc1cccc(C(=O)OCCCOC(=O)c2cccc(OC)c2OC)c1OC
[28] CCOc1ccccc1NC(=O)CSc1nnnn1-c1ccccc1
[29] COCCNc1nnc(Cc2ccc(OC)c(OC)c2)c(=O)[nH]1
[30] Cc1ccn2c(=O)nc(SCC(=O)c3ccc(Cl)cc3)nc2c1
[31] Cc1ccc(CCNS(=O)(=O)c2cc(Br)cnc2N)cc1
[32] CCc1ccc(-n2c(SCC(=O)Nc3cc(C)[nH]n3)nc3[nH]ncc3c2=O)cc1

assay / entry	25	26	27	28	29	30	31	32
Rango complex inh	-1.5%	2.9%	-1.2%	3.9%	2.0%	-0.5%	2.5%	3.8%
Rango release inh	-5%	15%	0%	-3%	2%	5%	6%	0%
miR-21 FLuc	-31%	·	·	-7%	0%	·	4%	-1%
GLA inh pH 4.5	-7	·	·	-5	·	·	·	0

[33] COC(=O)c1ccc(S(=O)(=O)c2ccc(Cl)cc2)c(N)c1
[34] O=C(c1cccc(S(=O)(=O)N2CCCc3ccccc32)c1)N1CCN(c2ccccc2)CC1
[35] O=C(NCC1CCCCC1)c1cccc(-c2ccc(O)cc2)c1
[36] CCC(C)NC(=O)N[C@@H](CCSC)C(=O)O (stereo not given in full)
[37] O=C(CN(c1ccc(F)cc1)S(=O)(=O)c1ccc2c(c1)OCCO2)NCc1ccncc1
[38] CN1CCC(N(C)C(=S)Nc2ccc(SC(F)F)cc2)CC1
[39] COc1ccccc1-n1cn[nH]c1=S
[40] O=C(Nc1ccccn1)c1ccc([N+](=O)[O-])cc1Cl

assay / entry	33	34	35	36	37	38	39	40
Rango complex inh	-6.5%	-1.5%	-1.1%	1.2%	-3.1%	2.7%	-0.8%	0.6%
Rango release inh	2%	3%	0%	9%	15%	6%	50%	10%
miR-21 FLuc	-11%	·	13%	-5%	-6%	-11%	-4%	-19%
GLA inh pH 4.5	·	·	·	-1	-2	2	5	0

[41] Cc1ccc(/C=C2\SC(=S)N(CC(=O)Nc3ncc(Cc4ccccc4Cl)s3)C2=O)cc1
[42] CC1(C)CCCC(C)(C)N1CC(O)COCCOc1ccc(Br)cc1 (stereo not given)
[43] CCN(C(=O)CSc1nnc(-c2ccccc2F)n1N)c1c(N)n(Cc2ccccc2)c(=O)[nH]c1=O
[44] CC(=O)Nc1ccc(NC(=O)CSc2ccc(-c3ccco3)nn2)cc1
[45] Cc1cc2c3c([nH]c2cc1S(=O)(=O)NCc1ccc(CN2CCCCCC2)o1)CCCC3=O
[46] Cc1cc(=O)oc2cc(OC(=O)c3nn(C(C)C)c(=O)c4ccccc34)ccc12
[47] COc1ccc(-c2nnc3sc(C4CCCCC4)nn23)cc1OC
[48] NC(=O)c1ccc(NC(=O)CN2CCN(Cc3ccccc3)CC2)cc1

assay / entry	41	42	43	44	45	46	47	48
Rango complex inh	·	-1.5%	1.8%	-1.1%	-5.5%	?	0.2%	0.6%
Rango release inh	·	-1%	5%	0%	2%	-23%	9%	?
miR-21 FLuc	-2%	-4%	·	-3%	0%	-5%	-17%	-4%
GLA inh pH 4.5	1	-1	·	-1	·	?	8	·

[49] O=C(NCCc1nc2ccccc2[nH]1)c1ccc(F)cc1
[50] COCCn1c(SCC(=O)OC(C)C)nnc1-c1ccccc1
[51] CN1CCC(=NNC(=O)C(=O)Nc2ccccc2F)CC1
[52] COc1ccc(/C(O)=C2/C(=O)C(=O)N(c3ncccn3)C2c2ccc(OC)cc2)cc1 (stereo not given)
[53] Cc1cccc(NC(=O)Cn2nnc(-c3ccc(CN4CCCC4)cc3)n2)c1C
[54] CN(C(=O)CSc1nc2ccccc2c(=O)n1-c1ccc(F)cc1F)C1CCS(=O)(=O)C1 (stereo not given)
[55] Cc1nc2sccn2c(=O)c1S(=O)(=O)Nc1ccc(N2CCN(S(C)(=O)=O)CC2)cc1
[56] CN1C(=O)C(C)(C)c2cc(S(=O)(=O)N3CCCC(C(=O)NCc4ccc(Cl)cc4)C3)ccc21 (stereo not given)

assay / entry	49	50	51	52	53	54	55	56
Rango complex inh	-0.1%	-1.3%	0.3%	-0.1%	-5.7%	4.0%	-0.1%	4.4%
Rango release inh	-9%	-14%	-7%	-20%	-10%	-2%	-14%	3%
miR-21 FLuc	-2%	2%	-4%	-6%	-1%	·	24%&25%	18%
GLA inh pH 4.5	-15	-8	5	-4	-1	·	·	·

# Full records as entered above. Screens in order: Rango complex inh	Rango release inh	miR-21 FLuc	GLA inh pH 4.5
# `Cc1nc2sccn2c(=O)c1S(=O)(=O)Nc1ccc(N2CCN(S(C)(=O)=O)CC2)cc1` is listed with -0.1%	-14%	24%&25%	·
# `COCCn1c(SCC(=O)OC(C)C)nnc1-c1ccccc1` is listed with -1.3%	-14%	2%	-8
# `CN1C(=O)C(C)(C)c2cc(S(=O)(=O)N3CCCC(C(=O)NCc4ccc(Cl)cc4)C3)ccc21` (stereo not given) is listed with 4.4%	3%	18%	·
# `CN(C(=O)CSc1nc2ccccc2c(=O)n1-c1ccc(F)cc1F)C1CCS(=O)(=O)C1` (stereo not given) is listed with 4.0%	-2%	·	·

# Later entries
[57] CN(C)S(=O)(=O)c1ccc(Nc2ccc(-c3ccc4c(c3)OCCO4)nn2)cc1
[58] CC(=O)c1ccc(N2CCN(CC(=O)Nc3ccccc3C(=O)NC3CC3)CC2)c(F)c1
[59] COc1ccc(S(=O)(=O)N2CCOCC2)cc1OC
[60] COC(=O)c1cn(-c2ccccc2)c(=O)c2ccccc12
[61] COc1ccc(C(=O)CN2CCN(c3ccc(F)cc3)CC2)cc1OC
[62] c1ccc2oc(-c3csc(NCC4CCCO4)n3)cc2c1 (stereo not given)
[63] COc1cc2c(cc1OC)CN(C(=O)/C=C/c1ccccc1[N+](=O)[O-])CC2
[64] O=C(Nc1ccc2oc(-c3ccncc3)nc2c1)c1ccccc1F

assay / entry	57	58	59	60	61	62	63	64
Rango complex inh	5.2%	-0.4%	6.5%	2.7%	-0.8%	-1.0%	-0.3%	0.8%
Rango release inh	-11%	-12%	2%	8%	-3%	-2%	-1%	-22%
miR-21 FLuc	-14%	·	-14%	-11%	-3%	-30%	16%	-33%
GLA inh pH 4.5	-8	·	-10	-15	-12	-12	·	8

[65] CCCOc1ccc(C(=O)Nc2ccc(S(=O)(=O)N3CCN(C)CC3)cc2)cc1
[66] COc1ccc(S(=O)(=O)NCC2CCCN(C(=O)CN3CCCCC3)C2)cc1 (stereo not given)
[67] O=C(CCN1C(=O)/C(=C/c2ccccc2Cl)SC1=S)N1CCOCC1
[68] CCCC1=C(C(=O)OCC)C(c2ccc(NC(C)=O)cc2)NC(=O)N1 (stereo not given)
[69] CCOC(=O)CNC(=O)CNC(=O)c1ccc(OCC(C)C)cc1
[70] Cc1ccc(OC(C)C(=O)Nc2ccc(S(=O)(=O)Nc3cc(C)on3)cc2)cc1 (stereo not given)
[71] O=C(COc1cccc(C(F)(F)F)c1)Nc1nnc(C2CC2)s1
[72] c1ccc(-c2ccnc3ncnn23)nc1
[73] Cc1cc(NC(=O)NC(=O)c2ccccc2NC(=O)CN(C)C)ccc1Oc1ncc(Br)cn1
[74] COc1ccc(C2SCC(=O)N2c2ccc(C)cc2)cc1 (stereo not given)

assay / entry	65	66	67	68	69	70	71	72	73	74
Rango complex inh	-1.4%	-2.2%	0.2%	-1.6%	-2.1%	-0.1%	-0.6%	2.9%	0.1%	4.3%
Rango release inh	-9%	0%	0%	0%	-29%	12%	1%	6%	-15%	-7%
miR-21 FLuc	18%	-4%	1%	-13%	7%	3%	·	0%	·	-2%
GLA inh pH 4.5	·	2	·	-5	0	3	·	-13	·	·
